# Compound activity from PubChem.
# LANA-H2A inh = blocks KSHV LANA binding to histone H2A/H2B. cell-free LANA-H2A/H2B peptide, fluorescence polarization. inhibition, % (concentration not given with the values). 320,000 tested, 0.6% active; in the data active means inhibition mostly above about 10%, no sharp cut-off; inactive means mostly below about 6.7%;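 further: stock transfer was 7.5 nL into about 10 µL; 0% = median of vehicle wells and 100% = median of positive control wells; one replicate is shown; the record names a cut of 25% in any replicate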
# Beta2AR agonist = human beta-2 adrenergic receptor agonism by FAP. 340,000 tested, 0.43% active. response, % (test concentration not listed). Am2.2-beta2AR cells, FAP receptor internalization, flow cytometry; reference of the scale not given here;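 active means response above a set limit, near 3 SD of response in nonfluorescent compounds, cut at about 42% in these data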;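 further: stock transfer was 100 nL into about 11 µL; a reference agonist was the positive control; negative values mostly stem from fluorescent compounds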
# Target sequence (P07550 whole entry, looked up): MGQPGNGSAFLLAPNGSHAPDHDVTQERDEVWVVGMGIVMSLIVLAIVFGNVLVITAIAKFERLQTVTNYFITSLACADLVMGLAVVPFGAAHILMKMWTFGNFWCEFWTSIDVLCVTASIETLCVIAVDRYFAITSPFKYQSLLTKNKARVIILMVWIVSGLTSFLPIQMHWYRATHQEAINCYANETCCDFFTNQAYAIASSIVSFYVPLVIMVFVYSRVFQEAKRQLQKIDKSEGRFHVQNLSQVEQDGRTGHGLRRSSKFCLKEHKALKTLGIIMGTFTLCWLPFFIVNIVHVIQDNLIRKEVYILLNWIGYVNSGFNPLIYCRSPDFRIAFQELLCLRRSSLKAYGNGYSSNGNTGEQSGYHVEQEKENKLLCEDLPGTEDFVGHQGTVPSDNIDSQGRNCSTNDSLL
# Bfl-1 A1 inh = inhibitors of the anti-apoptotic protein A1, read as caspase activation; AID 2462; caspase activation, % (no concentration beside the values); 330,000 tested, 0.066% active; MEF A1-2A-BIM cells, Caspase-Glo 3/7 luminescence, 3 h; percent of clofoctol response, vehicle zero;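 active means over half of replicate activation scores above 10%, or exactly half above 10 with the replicate mean above 10; inconclusive means replicate mean below 10 yet half the replicates above 10; inactive means over half of replicates below 10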;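 further: wells of about 30 µL received 50 nL stock; many hits fall short of the cut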
# Ecoli growth = blocks Escherichia coli growth; OD600, 23 h; hits give low values; OD600 absorbance (test concentration not listed); 330,000 tested, 0.21% active;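 active means OD600 absorbance below the run mean of sample wells minus 3.6 SD, in any replicate, cut at about 0.56 in these data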;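 further: stock transfer was 300 nL into about 60 µL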
# HNF4A DNA FP = change in binding of human HNF4 alpha to DNA. P41235. HNF4a-FITC DNA binding, fluorescence polarization, 1 h. 360,000 tested, 0.3% active. activity change, % at 10 µM; in the data active means activity change above about 30%, passing the limit was not always enough;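 further: controls were the assay level and a saturating level of protein; the project sought stronger binding though the title names inhibitors; some compounds called inactive have numbers as strong as hits; positive values seem to mean higher polarization but the record does not say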
# Target sequence (P41235 whole entry, looked up): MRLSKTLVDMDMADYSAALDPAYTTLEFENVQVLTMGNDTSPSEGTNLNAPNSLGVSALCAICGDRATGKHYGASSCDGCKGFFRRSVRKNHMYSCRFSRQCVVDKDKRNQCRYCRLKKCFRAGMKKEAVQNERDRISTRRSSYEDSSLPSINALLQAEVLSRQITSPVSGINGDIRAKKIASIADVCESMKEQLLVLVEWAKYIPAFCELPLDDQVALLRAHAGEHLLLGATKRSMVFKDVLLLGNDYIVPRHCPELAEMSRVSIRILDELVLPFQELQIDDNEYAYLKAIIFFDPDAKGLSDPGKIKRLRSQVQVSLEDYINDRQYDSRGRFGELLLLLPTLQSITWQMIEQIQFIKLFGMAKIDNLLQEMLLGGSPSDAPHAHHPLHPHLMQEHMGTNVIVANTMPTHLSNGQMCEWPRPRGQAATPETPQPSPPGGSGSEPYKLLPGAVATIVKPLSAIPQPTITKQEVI
# UCH37 DUB inh = inhibitors of human deubiquitinating enzyme UCH37. 330,000 tested, 0.33% active. AID 588478. Q9Y5K5. purified proteasome/UCH37, Ub-AMC cleavage fluorescence. inhibition, % (concentration not given with the values);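 active means mean of two replicates above 20%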;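 further: 0% = compound-free wells with enzyme and 100% = wells lacking proteasome; stock transfer was 100 nL into about 20 µL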
#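 Material: Human UCH37 enzyme supplied as purified proteasome complex | Schedule: 30 min compound-proteasome preincubation then 25 min substrate reaction, room temperature | Detection: AMC fluorescence from Ub-AMC cleavage, excitation 355 nm, emission 460 nm | Benchmarks: Wells without proteasome as full block, compound-free enzyme plus substrate as uninhibited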
# Vif A3G = inhibitors of Vif binding to APOBEC3G peptide, primary screen, biochemical, TR-FRET, GST-Vif 1-94, biotin-A3G peptide, dose response retest (AID 1117319). TR-FRET GST-Vif / biotin-A3G peptide binding; higher % means a stronger effect; test concentration not given here; strong numbers were not always called active. inhibition, %, or IC50 in µM where a hit was titrated. 260,000 tested, 0.57% active;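 active means above the screen mean plus three standard deviations and confirmed in dose response; inconclusive means results disagree or hit not tested in dose response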;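 further: Vif residues 1-94 fused to GST binding biotinylated APOBEC3G peptide 110-148; 0% = full assay without inhibitor and 100% = GST in place of GST-Vif; retest series ran down from 100 µM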
# An asterisk follows results filed as active; i = inactive; u = inconclusive; x = not tested or not shown; & = joins results of further samples.
SMILES,LANA-H2A inh,Beta2AR agonist,Bfl-1 A1 inh,Ecoli growth,HNF4A DNA FP,UCH37 DUB inh,Vif A3G
Cc1ccc(C(C(=O)NC2CCCC2)N(Cc2ccc(F)cc2)C(=O)c2csnn2)o1 (stereo not drawn),2.0,-3.2,-0.3,0.626,2.5,0.3,-6.7%
COc1ccc(/C=C2\SC(=S)N(CC(=O)N3CCN(C)CC3)C2=O)cc1,-3.0,-9.2,0.6,0.668,0.7,11.2,-1.9%
O=[N+]([O-])c1ccc(/C=N/Nc2ncccc2[N+](=O)[O-])s1,-11.0,4.7,-8.5,x,-3.7,x,x
Cc1ccc(C(=O)NC2CCC(C)CC2)s1 (stereo not drawn),-0.8,-1.5,-1.9,0.643,-1.5,-0.1,2.0%
CN1CCN(C(=O)Nc2ccc([N+](=O)[O-])cc2)CC1,0.1,0.0,-0.4,0.647,1.6,9.2,2.7%
Cc1cc(NS(=O)(=O)c2ccc(NC(=O)c3oc4ccccc4c3C)cc2)no1,0.2,9.2,0.8,0.755,2.1,3.3,4.2%
N=c1ccn2c(n1)O[C@H]1[C@@H](CO)[C@H](O)O[C@H]12,0.0,11.6,1.5,x,-3.7,0.3,x
Cc1cc(C)n(-c2ccc(NC(=O)C3CCN(Cc4ccccn4)CC3)cc2)n1,1.8,-0.2,-0.6,0.602,1.5,1.1,-0.6%
COc1cccc(C(=O)NN2c3ccccc3CCc3ccccc32)c1,-94.8,3.5,0.4,0.705,0.2,1.7,x
Cc1cc(C)cc(OCc2nnc(SCC(=O)OC(C)C)o2)c1,2.9,7.7,-0.1,0.655,1.9,3.4,5.2%
CCN(CC)S(=O)(=O)c1cc(NC(=O)CSc2nccn2C)ccc1C,-2.1,-4.5,-0.7,0.693,0.1,4.7,31.1%
CCCc1cc(=O)[nH]c(Nc2cc(OC)ccc2OC)n1,1.4,-6.9,0.4,0.796,-2.1,-0.3,15.5%
CCCn1c(N)c(C(=O)CSc2nc3ccccc3s2)c(=O)[nH]c1=O,i,-1.1,-1.6,0.727,2.5,2.1,-3.6%
Cc1ccc(S(=O)(=O)NCc2cccnc2)s1,5.2,-11.4,0.2,0.759,-0.3,2.1,6.4%
Cc1ccc(CNC(=O)CSc2nnc3c(n2)[nH]c2ccccc23)cc1,0.5,-3.4,-0.5,0.717,4.7,7.0,x
Nc1nc(SCc2ccccc2Cl)c2ncn(C3OC(CO)C(O)C3O)c2n1 (stereo not drawn),x,2.1,x,0.683,3.0,1.4,-12.1%
COC(=O)c1ccccc1NC(=O)CSc1nnc(C(CO)NC(=O)c2ccccc2Cl)n1C (stereo not drawn),5.1,-5.4,0.5,0.672,37.3*,1.5,3.8%
CC[C@H](C)/C=C(C)/C=C/C1=CC2=CC(=O)[C@]3(C)OC(=O)[C@@H](C(C)=O)[C@@H]3C2=CO1,4.9,-6.7,0.3,0.725,4.3,-79.5,13µM*
CCC1=C(OC(=O)N(CC)CC)N2C(=O)OC(=NCCc3c[nH]c4ccccc34)[C@]2(C)[C@H]2C1=CC[C@H]1C(=O)N(CC)C(=O)[C@H]12,1.7,3.8,0.1,x,8.3,0.6,-3.1%
COc1ccc(N2C(=O)CC(N(CCc3ccccc3)C(=O)/C=C/C(=O)O)C2=O)cc1 (stereo not drawn),-0.9,-8.0,0.3,0.666,0.4,3.4,0.9%

# Reprinted from the entries so far (two entries):
SMILES,LANA-H2A inh,Beta2AR agonist,Bfl-1 A1 inh,Ecoli growth,HNF4A DNA FP,UCH37 DUB inh,Vif A3G
Cc1cc(NS(=O)(=O)c2ccc(NC(=O)c3oc4ccccc4c3C)cc2)no1,0.2,9.2,0.8,0.755,2.1,3.3,4.2%
N=c1ccn2c(n1)O[C@H]1[C@@H](CO)[C@H](O)O[C@H]12,0.0,11.6,1.5,x,-3.7,0.3,x

# Next part:
SMILES,LANA-H2A inh,Beta2AR agonist,Bfl-1 A1 inh,Ecoli growth,HNF4A DNA FP,UCH37 DUB inh,Vif A3G
Cc1ccc(NC(=O)c2ccc(Cl)c(NC(=O)c3cccs3)c2)cc1,3.0,1.2,-0.1,0.706,1.0,3.7,x
C/C(CC(=O)NCCN1CCOCC1)=N\NC(=O)c1ccncc1,4.9,0.7,0.5,x,-3.7,x,-13.8%
CCOC(=O)c1nn(-c2ccc(C)c(C)c2)cc1O,1.5,9.8,-1.6,0.611,3.5,-0.2,u
COc1cccc(-n2ccnc2SCC(=O)Nc2ccccc2)c1,-13.0,-6.3,0.0,0.75,-2.1,6.1,2.4%
CCC1C(=O)NCCN1C(=O)c1cccc(OC2CCN(S(=O)(=O)N(C)C)CC2)c1 (stereo not drawn),0.6,22.4,-1.6,0.697,0.1,0.1,-1.6%
CC(Oc1ccccc1)c1nnc(SCC(=O)NC2CC2)n1C (stereo not drawn),1.9,-7.3,-0.2,x,-1.4,x,x
Cn1c(=O)cc(Cl)[nH]c1=O,-0.8,1.7,0.8,0.664,-1.7,1.5,x
COc1cc(OC)c(OC)cc1CNCCNC(=O)c1nonc1N,1.7,-5.6,0.4,0.644,-0.2,2.3,-2.6%
CCN(CC)CCSc1nc2ccccc2n1Cc1ccccc1,2.0,9.2,-0.4,0.621,-0.9,4.4,x
CC(C)(C)c1nnc(NC(=O)C2c3ccccc3Oc3ccccc32)s1,2.4,2.5,0.9,0.654,0.1,2.4,0.9%
CC1=NN(C(N)=S)C(=O)C1N=Nc1ccccc1 (stereo not drawn),-1.8,-1.4,-8.1,0.693,5.3,11.0,-10.0%
CSc1ncccc1C(=O)Nc1ccc(S(=O)(=O)N2CCCC2)cc1,3.5,10.4,1.2,0.659,0.5,3.6,x
COc1ccc(OC)c(C(c2nnnn2C(C)(C)C)N2CCc3ccccc3C2)c1 (stereo not drawn),4.2,2.1,0.2,0.756,1.8,6.8,0.6%
COc1nc(NCCc2ccc(OC)c(OC)c2)nc(OC)n1,-2.3,-3.5,-0.5,0.731,-1.6,-1.4,-4.3%
Cc1nc(SCC(=O)N2CCOCC2)c2c(=O)n(C)c(=O)n(CC(C)C)c2n1,4.8,3.5,-0.6,0.717,-1.7,4.8,-4.1%
COC(=O)c1ccccc1NC(=O)COC(=O)c1cccnc1,3.0,7.4,0.4,0.685,-1.2,0.2,16.9%
CN(C[C@H](Cc1ccccc1)N(C[C@H](CC1CCCCC1)N(CCc1ccccc1)N=O)N=O)N=O,2.1,-6.8,1.8,x,-2.7,-0.1,20.5%
Cc1ccsc1CN(C)CC(=O)Nc1ccc([N+](=O)[O-])cc1Cl,0.7,7.7,0.5,0.625,-2.7,2.5,x
Cc1ccccc1-c1nc(CN2CCC(C(=O)NCCCN3CCOCC3)CC2)c(C)o1,-4.6,-1.1,0.7,0.717,-2.0,3.4,1.6%
Cc1ccccc1NC(=O)COC(=O)C1CC2CCCC(C1)C2=O (stereo not drawn),1.7,11.7,-0.4,0.713,4.6,2.6,-9.9%
Cc1cc(C)c(NC(=O)CSc2nc3ncc(Br)cc3[nH]2)c(C)c1,-0.8,-10.3,0.2,0.668,3.9,0.6,-78.4%
COc1ccc(-c2noc(CCC(=O)N3CCN(c4ccccc4OC)CC3)n2)cc1,x,14.6,x,0.698,-4.8,-2.5,3.8%
Cc1nc(N2CCN(c3ccccc3)CC2)nc2c1C(=O)CC(C)C2 (stereo not drawn),-1.1,-10.5,-0.7,0.673,-2.0,2.6,21.5%
CCCCCOc1ccc(NC(=O)C(=O)NCCCn2ccnc2)cc1,0.9,-10.0,0.9,0.671,0.5,0.5,28.1%
NS(=O)(=O)c1cccc(NC(=O)CSc2nnnn2-c2ccccc2)c1,-5.7,-3.3,0.8,0.653,-0.2,-1.3,-12.0%
COCCN(Cc1ccccc1)C(=O)c1cccc(S(=O)(=O)N(C)c2c(C)n(C)n(-c3ccccc3)c2=O)c1,-0.9,-8.2,-0.1,0.691,2.1,1.5,x
COc1cccc(CNC(=O)COC(=O)CCCNC(=O)c2ccc(Cl)cc2)c1,-7.9,2.4,-0.6,0.644,1.0,0.9,0.3%
O=c1c2ccccc2cnn1-c1ccc(Cl)cc1,x,11.3,-4.3,0.789,-0.3,3.0,1.9%
CCOC(=O)CCC(NC(=O)CCC(=O)NC(CCC(=O)OCC)C(=O)OCC)C(=O)OCC (stereo not drawn),0.7,2.6,0.6,0.695,-1.0,-0.6,x
CCOC(=O)C1CCCN(S(=O)(=O)c2cc(Br)cc3c2N(C(=O)CC)CC3)C1 (stereo not drawn),-3.4,18.0,0.0,0.646,2.1,0.7,x
COCc1cc(C)nc(SCC(=O)Oc2ccc(Cl)cc2)c1C#N,1.4,-1.9,-0.2,0.691,-1.2,-13.0,0.5%
CCOc1ccc(C2Nc3ccccc3C(CC)(CC)O2)cc1 (stereo not drawn),-2.6,-3.7,0.5,0.654,-0.7,4.7,x
CC(C)COc1ccc(CNC(=S)Nc2ccccc2)cc1Cl,-2.8,-11.5,0.3,0.694,-2.9,2.0,-3.5%
Cc1ccc(-n2nnnc2SCC(=O)Nc2nc(-c3ccc(F)cc3)cs2)cc1C,-3.5,-0.6,-0.2,0.684,-0.4,3.5,10.3%
CC1CN(C2CCN(S(=O)(=O)Cc3ccccc3)CC2)CC(C)O1 (stereo not drawn),0.7,-3.3,0.8,0.64,1.9,4.3,-1.4%
O=C1CCCc2ccccc2N1Cc1cccc(Cl)c1,x,-2.1,-0.2,0.705,0.7,-0.6,-0.1%
Cc1ccc2cc(C#N)c(N3CCN(C(=O)c4cccs4)CC3)nc2c1,2.3,32.6,0.3,0.649,3.7,-43.8,x
CCN(CC)C(=O)c1ncn(Cc2ccccc2)c1C(=O)N(CC)CC,-1.1,2.5,0.4,0.717,0.5,0.9,x
O=C(CN1CCN(c2ccc(O)cc2)CC1)NC(=O)NCc1ccco1,-1.5,2.6,-0.4,0.659,3.9,0.2,u
NC(=O)c1ccccc1NC(=O)CS(=O)(=O)Cc1ccccc1,3.4,-12.0,-0.8,0.704,-5.3,5.7,9.5%
N#CC1(NC(=O)COc2ccc(C(N)=O)cc2)CCCC1,9.1,-0.4,0.7,0.719,2.3,3.2,x
Cc1nnn(-c2nonc2N)c1C(=O)NNC(=O)c1ccc(Cl)c(Cl)c1,5.3,2.1,-0.8,0.709,-1.9,3.5,-0.3%
CC1=C(/C=C/C(C)=C/C=C/C(C)=C/C(=O)Nc2ccc(O)cc2)C(C)(C)CCC1,0.9,8.9&5.3,0.2,x,-1.7&-1.1,x,-4.6%
Cc1cccc(Cc2nnc(NC(=O)c3cccc(S(=O)(=O)N4CCOCC4)c3)s2)c1,5.3,-3.2,0.2,0.711,1.3,-1.4,-24.4%
O=C(N/N=C\c1ccc(Sc2ccccn2)o1)c1cccc(F)c1,-5.6,4.5,-0.5,x,1.5,x,-5.5%
COc1nonc1NCn1nc(C)cc1C,-5.1,0.5,0.0,0.67,-3.9,1.2,0.4%
CCN(CC(=O)Nc1c(F)cccc1F)C(=O)c1cccc(S(=O)(=O)N(C)c2ccccc2)c1,-10.0,0.5,1.2,0.707,0.4,-1.9,4.0%
COc1ccc(N2CCN(C(=O)C3CCN(S(=O)(=O)c4ccc5c(c4)oc(=O)n5C)CC3)CC2)cc1,-5.0,-9.2,-0.5,0.749,-1.3,-0.4,x
CCOC(=O)c1oc2nc(C(C)C)c3c(c2c1N)CCC3,0.4,-5.8,-0.2,0.686,1.5,-419.5,-0.2%
CCOc1ccc(NC(=O)NNC(=O)c2ccc3ccccc3c2O)cc1,4.1,0.8,1.0,0.682,-1.5,-91.4,x
CN=c1sc2ccccc2n1CC(O)c1ccccc1 (stereo not drawn),1.4,2.9,1.0,0.643,-2.3,2.0,x
CS(=O)(=O)N1CCCC(C(=O)NCc2ccccn2)C1 (stereo not drawn),-2.1,11.6,1.8,0.724,2.2,3.9,-3.6%
